# PrP 5UTR inh = suppresses PrP 5' UTR mRNA reporter expression; cell-based PrP 5' UTR mRNA reporter, plate reader; inhibition, % (concentration not given with the values); actives 0.35% (n = 340,000); AID 488862;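 active = every replicate at 50% or more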;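 note: 0 = median of the neutral control wells; tested in H4 reporter cells; numbers are from one replicate; inactives centre near -14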
# RN4220 kill = kills Staphylococcus aureus RN4220 | actives 0.33% (n = 330,000) | S. aureus RN4220 growth, OD600, 16 h | inhibition, % (test concentration not listed);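 active = z-score of -3 or lower and OD600 up to 0.18 on both plates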;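 note: plate controls were untreated cells for no effect and reference antibiotic for full effect; stock transfer was 100 nL into about 80 µL; one replicate is shown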
# Mtb hypoxia rep = inhibitors of hypoxia-regulated fluorescent reporter in Mycobacterium tuberculosis | M. tuberculosis hypoxia-regulated fluorescent reporter, fluorescence | fluorescence inhibition, % (no concentration beside the values) | actives 0.1% (n = 300,000) | AID 1159583;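 active = 35 to 45% if threefold the growth effect, above 45% if 1.5-fold the growth effect; inactive = the rest, general growth blockers included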;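 note: wells of about 50 µL received 100 nL stock; 0% = vehicle wells and 100% = reference inhibitor wells; whole bacteria with a GFP reporter of the hypoxia response; strong numbers were not always called active; many hits fall short of the cut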
# Autofluor counter = flagged as autofluorescent in microsphere protease counterscreen; compound autofluorescence counterscreen, microsphere flow cytometry; stronger effect = higher value; fluorescence intensity (test concentration not listed); actives 3.1% (n = 360,000); AID 624483;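 active = at least 3 SD above the mean of all compounds, about 16000 in these data; inconclusive = too few beads counted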;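 note: 100 nL of 1 mM stock went into each well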
# BJeLR viability = kills HRASV12-expressing BJeLR cells; BJeLR (HRASV12) viability, CellTiter-Glo ATP luminescence, 48 h; reference of the scale not given here; inhibition, % (concentration not given with the values); actives 0.17% (n = 300,000); AID 1554;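 active = replicate mean above 50%; inconclusive = above 50% but judged a plate artefact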;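 note: 50 nL library stock added to about 25 µL; numbers are from one replicate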
# ugtP null kill = compounds lethal to S. aureus RN4220 ugtP deletion mutant. OD600 growth, 16 h; some inactives read as strong as hits. growth inhibition, % (concentration not given with the values). actives 0.54% (n = 330,000). AID 1259309;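 active = z-score under -3 and OD600 up to 0.15 on both plates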;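 note: plate controls were untreated wells for no effect and antibiotic for full effect; wells of about 80 µL received 100 nL stock; the first replicate is given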
# Mtb hypoxia rep growth = also measured in Mtb hypoxia rep; calls as there; growth inhibition, %; measured here: M. tuberculosis growth (absorbance);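 0% = vehicle and 100% = reference antibiotic; read after six days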
# An asterisk follows results filed as active; ? = inconclusive; nt = not tested or not shown.
no.	canonical_smiles	PrP 5UTR inh	RN4220 kill	Mtb hypoxia rep	Mtb hypoxia rep growth
1	O=C(O)C[C@H]1c2cc(F)ccc2S(=O)(=O)N1C1CCCCC1	-20	nt	nt	nt
2	Cc1cccc(N2CCN(C(=O)c3ccccc3NC(=O)C3CCCCC3C(=O)O)CC2)c1 (configuration not stated)	-13	nt	nt	nt
3	Cc1cc(C)c(S(=O)(=O)N(CC(=O)N2CCCC2)C2CCCCC2)c(C)c1	10	2.8	6	4
4	N#CCCn1cc(C=C2C(=O)NC(=O)NC2=O)c(-c2ccccc2)n1	-16	-0.8	5	4
5	CC(=O)c1ccc(NC(=O)CNC2CCCCC2)cc1	-22	7.3	16	5
6	CCN(CC)S(=O)(=O)c1ccc(Cl)c(C(=O)OC)c1	5	1.9	4	6
7	O=C(c1csc(Nc2cccc3ccccc23)n1)N1CCCC1	-17	7.6	0	-2
8	CN(CC(=O)Nc1cc(S(=O)(=O)N2CCCC2)ccc1Cl)Cc1cccs1	0	1.3	1	-1
9	CCOC(=O)c1ccc(-n2ncc(C(=O)OCC)c2N)cc1	-18	2.9	nt	nt
10	O=C(Nc1ccccc1)C(Cc1ccccc1)NC(=O)C12CC3CC(CC(C3)C1)C2 (configuration not stated)	2	8.2	1	5

no.	Autofluor counter	BJeLR viability	ugtP null kill
1	4041	17	nt
2	2588	10	nt
3	9607	-2	-9
4	4468	6	5
5	5103	5	0
6	17005*	12	8
7	4462	8	9
8	3629	8	5
9	4650	7	0
10	7845	-5	-1

# Additional results.
no.	canonical_smiles	PrP 5UTR inh	RN4220 kill	Mtb hypoxia rep	Mtb hypoxia rep growth
11	N#C/C(C(=O)N1CCOCC1)=C1/SC(Cc2ccc(F)cc2)C(=O)N1c1ccccc1 (configuration not stated)	3	-4.4	-5	8
12	COc1ccc(/C=N/n2cnn(Cc3ccccc3Cl)c2=S)cc1OC	12	nt	nt	nt
13	Cc1c(C(=O)NN=Cc2ccc(N3CCOCC3)cc2)nc2ccccn12	nt	1.2	4	-5
14	Cc1ccccc1-n1c(SCC(=O)Nc2c(C)cccc2C)nc(O)cc1=O	-7	-2.5	-7	0
15	CC(C)C(=O)NNC(=O)CN1CCN(c2nc(-c3ccccc3)cs2)CC1	-3	9.3	9	5
16	COc1ccc(Cl)cc1NC(=S)N(Cc1ccc(C(=O)O)cc1)Cc1ccc(OC)c(OC)c1	-15	0.6	-7	4
17	CC(=NNc1ccc2nncn2n1)c1cccs1	nt	2.1	-17	-8
18	COc1ccc(/C=C/C(=O)OCC(=O)NCCC2=CCCCC2)cc1S(=O)(=O)N1CCOCC1	-52	2.7	14	8
19	COc1ccccc1N1CCN(C(=O)COc2cc(C)cc3oc(=O)cc(C)c23)CC1	3	4.2	6	4
20	NNC(=O)C1CC(O)CN1S(=O)(=O)c1ccc2ccccc2c1 (configuration not stated)	-11	3.0	11	4

no.	Autofluor counter	BJeLR viability	ugtP null kill
11	2554	-17	-8
12	3582	3	nt
13	nt	nt	5
14	5572	-10	5
15	4354	-5	-2
16	3226	3	0
17	nt	nt	-2
18	4250	16	7
19	4907	2	8
20	3736	nt	2

# (listing goes on)
no.	canonical_smiles	PrP 5UTR inh	RN4220 kill	Mtb hypoxia rep	Mtb hypoxia rep growth
21	COCCn1c(Cc2ccccc2)nnc1SCC(=O)Nc1cc(C)on1	-31	0.4	4	7
22	CC(=O)N1CCN(C(=O)CSc2cc(C)c(Br)cc2C)CC1	0	-0.2	-5	-3
23	COc1ccc(N2C(=S)NC3CS(=O)(=O)CC32)cc1 (configuration not stated)	-32	0.7	8	-17
24	COc1cccc(NC(=O)CCNS(=O)(=O)c2cccc3nonc23)c1	-5	5.7	2	2
25	CCOc1cc(/C=C(\C#N)C(=O)Nc2cccc(C(=O)O)c2)cc(Br)c1OC(=O)c1ccc(OC)cc1	-4	0.3	2	-2
26	CCCNC(=O)CN(CCc1ccccc1)S(C)(=O)=O	-17	8.4	8	11
27	O=C(c1cc2ccccc2cc1O)N1CCCC1	-7	5.7	25	7
28	CCCCOC(=O)C1=C(N)OC2=C(C(=O)CCC2)[C@]12C(=O)Nc1ccccc12	-10	1.3	nt	nt
29	Cc1[nH]c2ccccc2c1C(=O)COC(=O)C1CC(=O)N(Cc2ccco2)C1 (configuration not stated)	-19	-3.4	-1	1
30	Cc1ccnc(NC(=O)C2CCN(S(=O)(=O)c3cccc(C(F)(F)F)c3)CC2)c1	-50	-0.8	-2	5

no.	Autofluor counter	BJeLR viability	ugtP null kill
21	10856	-16	5
22	4045	-2	-3
23	4604	2	8
24	5288	4	3
25	4229	-4	13
26	9911	-12	-3
27	3576	-1	14
28	2465	2	5
29	3012	-4	-11
30	6328	0	1

# Going on with the list:
no.	canonical_smiles	PrP 5UTR inh	RN4220 kill	Mtb hypoxia rep	Mtb hypoxia rep growth
31	Cc1ccc(NC(=O)COC(=O)c2ccc(OCc3c(C)noc3C)cc2)cc1S(=O)(=O)N1CCOCC1	-11	6.9	-2	12
32	CCOc1ccccc1NC(=O)CN1CCC(C(=O)c2ccc(OC)cc2)CC1	-17	1.9	4	12
33	COC(=O)c1cc(-c2cccs2)nc2ccccc12	-12	9.5	9	0
34	COc1cc(-c2nnc(SCC(=O)N(Cc3ccccc3)C(C)(C)C)o2)cc(OC)c1OC	-7	4.7	5	7
35	O=C1OC2(O)C3C4C=CC(C4)C3C(=O)N2c2ccccc21 (configuration not stated)	-22	1.2	0	-1
36	CCCn1c(SCC(=O)Nc2cccc(C(=O)OCC)c2)nnc1-c1ccoc1C	-2	-5.3	-12	0
37	COc1cc(C(=O)OC(C)CN2CCCCC2)cc(OC)c1OC (configuration not stated)	-6	0.2	20	6
38	O=C(COc1ccc(C(=O)O)cc1)Nc1cccc(C(F)(F)F)c1	-19	-6.4	5	2
39	O=C(NCCSc1ccc(Br)cc1)c1ccccc1	-15	5.2	9	5
40	Cc1cc(NC(=O)CCC(=O)N(Cc2ccco2)C(C(=O)NC2CCCC2)c2ccc(F)cc2)no1 (configuration not stated)	-22	5.9	10	13

no.	Autofluor counter	BJeLR viability	ugtP null kill
31	2501	7	2
32	3429	-3	8
33	3502	8	13
34	9523	-3	14
35	4283	-4	0
36	2847	7	-3
37	3138	-10	4
38	3994	-2	3
39	4072	5	2
40	3656	4	-3

# Other results
no.	canonical_smiles	PrP 5UTR inh	RN4220 kill	Mtb hypoxia rep	Mtb hypoxia rep growth
41	CCn1c(CNC(=O)Cc2ccc(OC)cc2)nnc1SCC(=O)Nc1nccs1	3	-1.2	5	-5
42	COc1ccc(NC(=O)CN(C)C(=O)CSc2ccc3c(c2)OCCO3)cc1	-14	2.9	-1	-3
43	CCOc1ccc(-c2nnc(SCC(=O)NC(C)(C)C)nc2-c2ccc(OCC)c(OC)c2)cc1OC	-27	-1.5	0	-1
44	ON=Cc1ccc2ccccc2n1	nt	3.1	12	-5
45	Cc1cc(C)n(CCNc2nc3nonc3nc2N2CCCCC2)n1	-9	-3.7	0	13
46	CC1CCc2ccc(F)cc2N1S(=O)(=O)c1cccs1 (configuration not stated)	-21	16	12	4
47	COc1ccc(C(=O)CSc2ccccc2C(=O)O)cc1	-21	2.4	-3	-4
48	CCN(Cc1nc2cc(Cl)ccc2c(=O)[nH]1)C(=O)C1CC(=O)N(c2cccc3ccccc23)C1 (configuration not stated)	-21	8.5	10	4
49	O=C1CS/C(=C/C(=O)c2cccc(Cl)c2)N1	-26	-2.0	13	15
50	Cc1cccnc1NC(=O)CNC(=O)C12CC3CC(CC(C3)C1)C2	-10	-0.6	0	-6

no.	Autofluor counter	BJeLR viability	ugtP null kill
41	5568	5	8
42	6213	-4	4
43	3919	9	9
44	nt	nt	6
45	3875	-15	-6
46	5679	4	15
47	2816	1	-1
48	4158	nt	1
49	3364	6	-7
50	4993	2	1

# (listing goes on)
no.	canonical_smiles	PrP 5UTR inh	RN4220 kill	Mtb hypoxia rep	Mtb hypoxia rep growth
51	CCOc1ccc(C(=O)CCC(=O)N2CCN(S(=O)(=O)c3cccc(F)c3)CC2)cc1	-44	2.0	2	2
52	CCn1nc(C(=O)NNS(=O)(=O)c2ccc(C)cc2)c2ccccc2c1=O	-15	5.3	5	5
53	COc1ccc(CC(=O)Nc2cccc(/C(C)=N/NC(=O)C3(C)CC3(Br)Br)c2)cc1 (configuration not stated)	-28	nt	nt	nt
54	CC[C@@H]1C/C=C\Cc2ccccc2[C@H](C(=O)C[C@H](O)CC(C)=O)OC1=O	10	2.0	0	-7
55	COc1ccc(CCNC(=O)c2cnn3cccnc23)cc1OC	-1	2.5	10	7
56	CC(=NNC(=O)CN1CCN(Cc2ccccc2Cl)CC1)c1cccnc1	nt	4.0	0	7
57	COc1ccc(-c2cc3c(=O)n(CC(=O)Nc4cccc(Cl)c4)nc(C)n3n2)cc1	-26	nt	nt	nt
58	COC(=O)c1cccc(NC(=O)CSc2nc3cccnc3n2C)c1	-16	1.8	4	5
59	CC(C)CC1(C(=O)O)NC(c2ccccc2O)C2C(=O)N(C(C)C)C(=O)C21 (configuration not stated)	-23	1.9	nt	nt
60	CCOC(=O)c1ccc(N(CC(=O)NC2CCCC2)C(=O)CNC(=O)c2ccco2)cc1	-22	-0.9	7	14

no.	Autofluor counter	BJeLR viability	ugtP null kill
51	nt	nt	2
52	3089	nt	4
53	4067	10	nt
54	3670	nt	2
55	7975	-10	9
56	nt	nt	6
57	5457	-3	nt
58	4022	nt	1
59	5580	2	2
60	4578	4	4

# Entries of single compounds, quoted from the list. Order of screens: PrP 5UTR inh, RN4220 kill, Mtb hypoxia rep, Mtb hypoxia rep growth, Autofluor counter, BJeLR viability, ugtP null kill
# COc1ccc(-c2cc3c(=O)n(CC(=O)Nc4cccc(Cl)c4)nc(C)n3n2)cc1 as listed: -26, nt, nt, nt, 5457, -3, nt
# CCOc1ccc(C(=O)CCC(=O)N2CCN(S(=O)(=O)c3cccc(F)c3)CC2)cc1 as listed: -44, 2.0, 2, 2, nt, nt, 2
# CC(=NNC(=O)CN1CCN(Cc2ccccc2Cl)CC1)c1cccnc1 as listed: nt, 4.0, 0, 7, nt, nt, 6

# Later entries
no.	canonical_smiles	PrP 5UTR inh	RN4220 kill	Mtb hypoxia rep	Mtb hypoxia rep growth
61	CCOc1cc(NC(=S)NCc2ccco2)c(OCC)cc1NC(=O)CC	-24	-3.3	-6	1
62	CCCC(=O)Nc1ccc(C(=O)NCCCn2ccnc2)cc1	-5	3.0	22	0
63	Clc1cccc(OCCN2CCOCC2)c1	4	4.4	4	5
64	Cc1cccc(-n2c(SCC(N)=O)nc3c(c2=O)C2(CCCC2)Cc2ccccc2-3)c1	-5	-1.4	-1	-4
65	CC(C)C(=O)Nc1nnc(CSCc2ccccc2F)s1	-16	9.6	16	11
66	COc1ccc(C(=O)Nc2c(O)ccc3ccccc23)cc1	-19	-3.2	1	8
67	c1ccc2c(SCc3cn4ccccc4n3)nncc2c1	-17	-0.4	0	-9
68	C[C@@H]1CCC[C@@]2(O[C@@H](CCO)C[C@H](O)[C@H]2O)O1	-1	nt	nt	nt
69	O=C(CS(=O)(=O)c1c[nH]c2ccccc12)Nc1ccc2c(c1)OCCO2	-45	7.1	5	16
70	Cc1c(CNCCCc2ccccc2)c(C(=O)O)c(C)n1Cc1ccccc1	-22	-0.7	-10	-4

no.	Autofluor counter	BJeLR viability	ugtP null kill
61	2222	-1	-7
62	2946	-4	5
63	16577*	5	4
64	7359	-4	74
65	8542	-12	2
66	3719	4	-8
67	4005	2	2
68	4131	-3	nt
69	10557	7	-2
70	4730	-3	-6

# The list goes on.
no.	canonical_smiles	PrP 5UTR inh	RN4220 kill	Mtb hypoxia rep	Mtb hypoxia rep growth
71	C=CCN(C(=O)CCC(=O)Nc1cc(C)on1)C(C(=O)NC1CCCC1)c1ccc(OC)c(OC)c1 (configuration not stated)	-5	-2.5	3	10
72	COc1ccccc1CCNC(=O)CN1C(=O)NC2(CCCC2)C1=O	-8	2.3	5	14
73	O=C(CN1CCCc2ccccc21)N/N=C/c1c(O)ccc2ccccc12	-14	nt	nt	nt
74	O=C(c1cc2nc(-c3ccc(F)cc3)cc(C(F)(F)F)n2n1)N1CCOCC1	-4	-1.8	nt	nt
75	CC(C)OCCCNC1=C(Cl)C(=O)c2ccccc2C1=O	nt	22	-10	6
76	CCc1ccc(N2CC(C(=O)Nc3ccc(S(=O)(=O)Nc4ncccn4)cc3)CC2=O)cc1 (configuration not stated)	9	0.0	3	-3

no.	Autofluor counter	BJeLR viability	ugtP null kill
71	3753	3	17
72	?	2	3
73	2421	4	nt
74	3650	nt	-1
75	nt	6	5
76	6115	-11	-3

# From PubChem
